Screening results as filed in PubChem.
Insulin prom inh: TRM-6 insulin promoter activity inhibition; AID 1273; TRM-6 cells (human fetal islet line), insulin promoter-eGFP reporter, imaging; reporter expression induced with tamoxifen; inhibition, % at 2 µM; 130,000 compounds, 0.9% hits;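 active = inhibition above the mean plus 3 SD, with well images judged a real hit on visual review, cut at about 60% in these data, passing the limit was not always enough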
RGS16-Gao HTS: regulators of human RGS16-Galphao interaction; O15492+P09471; bead-based flow cytometry RGS16-Galphao binding, fluorescence; actives lie on both sides; binding response (% of control), % at 10 µM; 220,000 compounds, 0.38% hits;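 active = below 25% or above 175%, edge rows of some plates excepted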;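 note: Galphao activated by GDP with aluminum fluoride before binding; 100% = wells without compound and 0% = beads without RGS; some results beyond the cut were filed as inactive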
Target sequence (O15492 whole entry, looked up): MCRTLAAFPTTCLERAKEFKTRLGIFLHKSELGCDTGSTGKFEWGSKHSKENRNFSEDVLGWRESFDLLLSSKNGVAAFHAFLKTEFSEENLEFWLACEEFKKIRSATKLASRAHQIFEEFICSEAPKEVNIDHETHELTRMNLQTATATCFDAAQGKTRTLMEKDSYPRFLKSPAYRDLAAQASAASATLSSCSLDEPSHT
Target sequence (P09471 whole entry, looked up): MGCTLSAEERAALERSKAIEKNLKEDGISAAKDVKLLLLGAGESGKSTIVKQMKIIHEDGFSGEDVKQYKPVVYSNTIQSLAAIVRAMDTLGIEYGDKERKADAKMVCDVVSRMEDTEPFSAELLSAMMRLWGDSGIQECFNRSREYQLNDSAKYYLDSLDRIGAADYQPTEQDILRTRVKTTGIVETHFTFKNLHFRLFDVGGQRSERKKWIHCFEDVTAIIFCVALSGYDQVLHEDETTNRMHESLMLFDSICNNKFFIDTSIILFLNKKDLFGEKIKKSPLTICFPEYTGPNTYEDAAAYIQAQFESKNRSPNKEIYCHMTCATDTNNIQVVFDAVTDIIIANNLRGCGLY
HSV replic up: increases HSV replication in cells. maximum fold increase. 220,000 compounds, 0.005% hits. HSV replication augmentation in cells, fold increase. AID 1956;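 active = peak rise of 1.5-fold or more in the series; tested in PC3 cells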;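 note: first round at 10 µM; read as green reporter fluorescence; hits show the peak of a series up to 25 µM; 1 = signal of infected wells without compound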
GALR2 agonist: GALR2 (human) receptor agonism; 140,000 compounds, 0.48% hits; GALR2-expressing cells, agonist activation read-out; O43603; activation, %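 (tested at 5 µM)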;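 active = above mean plus 3 SD of all compounds, about 5% in these data, not always enough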;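 note: 0% = vehicle buffer wells and 100% = reference agonist at full effect; tested in CHO reporter cells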
Target sequence (O43603 whole entry, looked up): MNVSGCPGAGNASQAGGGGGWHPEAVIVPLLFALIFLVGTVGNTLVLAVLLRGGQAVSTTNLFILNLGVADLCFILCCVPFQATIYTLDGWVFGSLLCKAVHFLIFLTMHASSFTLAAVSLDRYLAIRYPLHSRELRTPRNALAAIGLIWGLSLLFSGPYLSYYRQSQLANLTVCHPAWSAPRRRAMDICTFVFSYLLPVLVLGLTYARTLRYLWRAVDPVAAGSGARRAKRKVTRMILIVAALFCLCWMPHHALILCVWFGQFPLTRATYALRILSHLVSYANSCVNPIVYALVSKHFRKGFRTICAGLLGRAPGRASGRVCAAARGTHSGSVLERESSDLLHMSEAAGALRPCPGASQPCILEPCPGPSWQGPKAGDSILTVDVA
PKD1 inh: blocks activity of human protein kinase D1; Q15139; PKD1 kinase fluorescence polarization assay; inhibition, %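 (about 10 µM by stock and volumes)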; 200,000 compounds, 0.056% hits; AID 797;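 active = inhibition of 50% or more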;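 note: controls were vehicle for no effect and a reference inhibitor for full effect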
Insulin prom inh cell count: further read-out of Insulin prom inh, marked with its call; normalized cell count, %; measured here: cell count, toxicity; reference of the scale not given here;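 cells exposed to compound for 48 h; stained nuclei by imaging scaled within each plate; lower means fewer cells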
HSV replic up primary fold: second read-out of HSV replic up, no call of its own (marks repeat the call); fold increase; compound at 10 µM; measured here: primary screen fold increase 10 uM; tested in PC3 cells;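 GFP signal in the first replicate; 1 = infected wells without compound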
Starred values were filed as active, the others as inactive; i = inactive; . = no result given.

Fields – Insulin prom inh	Insulin prom inh cell count	RGS16-Gao HTS	HSV replic up	HSV replic up primary fold	GALR2 agonist	PKD1 inh
O=C(N/N=C/c1cccc([N+](=O)[O-])c1)c1cc(-c2ccc3c(c2)OCO3)n[nH]1
    .	.	103	i	0.83	.	.
O=S(=O)(c1ccc2c(c1)OCCO2)N1CCC(O)(c2ccc(Cl)cc2)CC1
    .	.	110	i	0.88	-0.8	-1
CC(=O)c1ccc(-n2c(-c3cc(-c4ccsc4)n[nH]3)n[nH]c2=S)cc1
    -27	115	86	i	0.98	.	1
O=C(COC(=O)c1cccc(S(=O)(=O)N2CCc3ccccc32)c1)Nc1ccc(Cl)cn1
    .	.	102	i	1.1	0.3	-6
Oc1[nH]c2ccc(Br)cc2c1N=NC(=S)NCC1CCCO1 (centres undefined)
    .	.	101	i	0.63	.	.
O=C(Nc1cccc(S(=O)(=O)N2CCCCCC2)c1)c1ccc2ccccc2n1
    .	.	102	i	1.1	-0.8	7
O=[N+]([O-])c1ccc(NCCCNS(=O)(=O)c2ccc(Cl)cc2)c(Cl)c1
    .	.	108	.	.	-0.9	6
O=C(CSc1nc(-c2ccccc2)cc(=O)[nH]1)N1CCc2ccccc21
    -425	49	99	i	1	-2.3	-6
O=S(=O)(c1cccc2nonc12)N1CCN(c2ccc(F)cc2)CC1
    .	.	114	i	1	.	2
COC(=O)C1=C(C)NC(C)=C(C(=O)OC)C1c1ccc(-c2cccc([N+](=O)[O-])c2)o1
    .	.	95	i	0.84	.	.
O=C(NC1CCN(C(=O)N2c3ccccc3Sc3ccccc32)CC1)c1ccccc1F
    -32	92	90	i	1	-1.8	-4
O=C(COC(=O)CCc1nc2ccccc2c(=O)[nH]1)NC(c1ccccc1)c1ccccc1
    .	.	113	i	1	.	.
Cc1cccc(NC(=O)CN2CCN(CC(=O)Nc3cccc(C)c3)CC2)c1
    .	.	98	i	0.86	-2.6	2
CSc1ccccc1C(=O)Nc1cccc([N+](=O)[O-])c1C
    .	.	92	i	0.96	.	-3
O=C(CCc1ccccc1)N1CCN(CCO)CC1
    .	.	113	i	1.2	-2.5	-2
CCOC(=O)c1ccc(S(=O)(=O)NNC(=O)COc2ccc(C)cc2)cc1
    12	147	101	i	0.92	-1.1	-7
CCc1ccc(C(=O)N/N=C/c2ccc(Cl)cc2Cl)nc1
    22	117	78	i	0.92	0.3	5
CC(OC(=O)c1nsc(Cl)c1Cl)C(=O)NCc1ccco1 (centres undefined)
    -8	77	97	i	1.1	-1.0	7
CCc1nnc(NC(=O)c2ccc(Cl)c(S(=O)(=O)N3CCc4ccccc4C3)c2)s1
    -47	79	108	i	1	0.0	-3
CC(=O)Nc1cccc(-c2csc(Nc3ccccn3)n2)c1
    -21	98	105	i	0.9	0.6	-5

Two of the compounds above, in markdown.
| molecule | Insulin prom inh | Insulin prom inh cell count | RGS16-Gao HTS | HSV replic up | HSV replic up primary fold | GALR2 agonist | PKD1 inh |
| --- | --- | --- | --- | --- | --- | --- | --- |
| CCOC(=O)c1ccc(S(=O)(=O)NNC(=O)COc2ccc(C)cc2)cc1 | 12 | 147 | 101 | i | 0.92 | -1.1 | -7 |
| CC(=O)c1ccc(-n2c(-c3cc(-c4ccsc4)n[nH]3)n[nH]c2=S)cc1 | -27 | 115 | 86 | i | 0.98 | . | 1 |

By substructure, the compounds so far with a furan ring, fused or not (2)
Fields – Insulin prom inh	Insulin prom inh cell count	RGS16-Gao HTS	HSV replic up	HSV replic up primary fold	GALR2 agonist	PKD1 inh
COC(=O)C1=C(C)NC(C)=C(C(=O)OC)C1c1ccc(-c2cccc([N+](=O)[O-])c2)o1
    .	.	95	i	0.84	.	.
CC(OC(=O)c1nsc(Cl)c1Cl)C(=O)NCc1ccco1 (centres undefined)
    -8	77	97	i	1.1	-1.0	7

The listing continues.
Fields – Insulin prom inh	Insulin prom inh cell count	RGS16-Gao HTS	HSV replic up	HSV replic up primary fold	GALR2 agonist	PKD1 inh
O=C(c1ccccc1O)N1CCOCC1
    .	.	103	i	1	.	.
CCN(CC)C(=O)Cn1c(=O)oc2ccccc21
    .	.	100	i	1	.	.
Nc1nc(SCC(=O)NCc2ccc3c(c2)OCO3)n[nH]1
    65*	95*	99	i	1.1	.	-3
O=C(c1ccco1)N(Cc1ccc([N+](=O)[O-])cc1)c1ccc(Br)cc1
    10	66	100	i	0.73	-1.4	-13
COc1cc2[nH]c(=S)n(Cc3ccc(F)cc3)c(=O)c2cc1OC
    0	116	77	i	0.75	.	2
Cc1cc(=O)oc2cc(Oc3ncccn3)ccc12
    -40	145	106	i	0.96	0.5	2
Cc1cccc(CN2CCN(C(c3ccccc3)c3ccc(Cl)cc3)CC2)c1 (centres undefined)
    14	138	103	i	0.79	0.8	-12
COC(=O)NNC(=O)CCCOc1ccc(Cl)cc1Cl
    -48	68	104	i	0.97	-0.5	6
O=C(NCc1ccccc1Cl)c1ccc(Br)o1
    .	.	98	i	0.89	.	0
C=CCN1C(=O)/C(=C2\SC(N3CCOCC3)=NC2=O)c2cc(Br)ccc21
    -32	132	101	i	0.84	1.1	-5
COc1ccc(CCNC(=O)COC(=O)c2ccc[nH]c2=O)cc1
    -24	104	105	i	0.94	-2.2	-8
N#C/C(=C\c1cn[nH]c1-c1ccccc1Br)C(=O)O
    12	72	99	i	0.94	.	4
CCNC(=S)N1CCN(S(=O)(=O)c2cccc(C(F)(F)F)c2)CC1
    -23	114	102	i	0.88	-1.0	-8
CC(C)(C)Cc1nnc(NS(=O)(=O)c2ccc(F)cc2)s1
    3	89	97	i	0.89	0.6	-2
Cn1nc(-c2ccc(C(=O)NCC3CCCO3)cc2)c2ccccc2c1=O (centres undefined)
    40	109	.	i	0.97	-1.6	9
Cc1cc(C)n2nc(-c3cccnc3)nc2n1
    29	95	105	i	0.83	2.6	6
CC(NC(=O)NC1CCCCC1)C(c1cccs1)N1CCN(c2ccccc2)CC1 (centres undefined)
    .	.	108	i	1.1	-0.6	12
COc1cccc(N/C=C/c2onc(C)c2[N+](=O)[O-])c1
    -79	93	96	i	1.1	.	-3
COc1ccc(-n2c(=O)cc(N3CCN(c4ccccc4OC)CC3)[nH]c2=O)cc1
    -28	101	80	i	0.91	-0.6	-6
CC(C)(C)c1cc(NCc2ccccn2)n2ncc(-c3ccc(Cl)cc3)c2n1
    .	.	103	i	0.93	.	.

Fields – Insulin prom inh	Insulin prom inh cell count	RGS16-Gao HTS	HSV replic up	HSV replic up primary fold	GALR2 agonist	PKD1 inh
O=C(CSCc1ccccc1Cl)NN=C1CCCCCC1
    -16	98	81	i	0.97	-1.7	5
O=C(CCCn1c(=O)[nH]c2ccsc2c1=O)N1CCCCC1
    9	125	103	i	0.77	-0.4	-5
Cc1sc(NC(=O)CN(Cc2ccccc2)C(=O)C2CC2)c(C(N)=O)c1C
    .	.	104	i	0.92	.	-1
COc1cccc(NC(=S)N(CCN(C)C)C(C)c2ccncc2)c1 (centres undefined)
    .	.	100	i	0.99	.	.
CCOC(=O)C1(Cc2ccccc2)CCCN(Cc2ccc(OCC)c(CO)c2)C1 (centres undefined)
    -15	145	97	i	0.85	.	-2
CCCc1nnc(NC(=O)CCC(=O)NCCc2ccc(OC)c(OC)c2)s1
    15	92	107	i	1.1	-1.0	16
Cc1ccc(CNC(=O)CSc2nc(N3CCCCC3)nc(N3CCCCC3)n2)cc1
    -17	156	103	i	0.96	-0.5	-4
COc1ccc(Nc2nc(CC(C)=O)ns2)cc1
    47	83	105	i	1	-1.6	-1
COc1cc(CNCc2cccs2)ccc1OCc1ccccc1
    .	.	110	i	0.79	-3.2	3
CCNC(=S)N1CCCCC1CO (centres undefined)
    .	.	88	i	1	.	-2
O=C(/C=C/c1ccc([N+](=O)[O-])cc1)Nc1ncc([N+](=O)[O-])s1
    .	.	101	i	0.99	.	3
COc1ccc(-c2cn3c(C)c(C(=O)N4CCCc5ccccc54)sc3n2)cc1
    .	.	.	i	0.78	-1.3	0
CCC(=O)N1CC2(c3ccccc3)CN(C(=O)CC)CC(c3ccccc3)(C1)C2=O
    .	.	100	i	1.1	.	-5
C/C(=N\NC(=O)c1nc2ccccn2c1C)c1cccc([N+](=O)[O-])c1
    .	.	103	i	0.85	.	1
O=C1c2cccc(OCC(=O)N3CCCc4ccccc43)c2CCN1Cc1cccnc1
    .	.	104	i	0.99	.	3
COc1cccc(NC(=O)N2CCN(c3nc(-c4cccc(OC)c4)cs3)CC2)c1
    .	.	103	i	0.89	.	.
Cc1ccc(S(=O)(=O)N2CCCCC2)cc1NC(=O)CN1C(=O)CN(C)C1=O
    -50	163	97	i	1	.	-8
CCOC(=O)C1(CC2CC2)CCN(Cc2cnc(-c3ccccc3C)nc2)CC1
    .	.	105	i	0.98	.	-3
Cc1ccc(CNC(=O)C2CCN(S(=O)(=O)c3cnc[nH]3)CC2)cc1
    19	115	101	i	1.1	-1.2	-4
O=C(Nc1nnc(-c2ccco2)o1)C1CCCCC1
    .	.	103	i	0.88	-1.9	-3

Individual results from above:
Value for N#C/C(=C\c1cn[nH]c1-c1ccccc1Br)C(=O)O under RGS16-Gao HTS: 99
Value for O=C(N/N=C/c1cccc([N+](=O)[O-])c1)c1cc(-c2ccc3c(c2)OCO3)n[nH]1 under RGS16-Gao HTS: 103

Next compounds follow:
Fields – Insulin prom inh	Insulin prom inh cell count	RGS16-Gao HTS	HSV replic up	HSV replic up primary fold	GALR2 agonist	PKD1 inh
Cc1ccc2cc3c(N)[nH]nc3nc2c1
    .	.	11	i	1.1	-0.1	-10
O=C(N/N=C/c1cccc(Cl)c1Cl)Nc1ccccc1
    -11	86	105	i	0.74	-1.5	15
CCN1C(=O)C(CC(=O)Nc2ccc(Cl)cc2)N(NC(=O)c2ccncc2)C1=S (centres undefined)
    .	.	101	i	1	.	.
COc1cc(OC)cc(-c2cc3nc(C)c(CCC(=O)NC(C)CCc4ccco4)c(C)n3n2)c1 (centres undefined)
    -29	99	96	i	0.93	0.1	-8
CCc1ccc(NC(=O)CN(c2ccccc2)S(=O)(=O)N(C)C)cc1
    -60	93	102	i	0.92	.	6
Cc1ccc2[nH]c(=O)c(CN(Cc3cccs3)Cc3nnnn3Cc3ccccc3)cc2c1
    6	113	66	i	1.4	-1.9	0
O=C(CNC(=S)NC(=O)c1ccc(F)cc1)c1ccccc1
    -88	91	100	i	0.99	-1.4	10
COC(=O)CC1C(=O)NCCN1C(=O)c1ccc(S(=O)(=O)N2CCOCC2)cc1 (centres undefined)
    -20	112	96	i	0.93	.	-6
COc1ccc(/C=N/NC(=O)c2ccc(N(C)S(=O)(=O)c3ccccc3)cc2)c(OC)c1
    27	119	117	i	0.81	.	-4
COc1cccc(CNc2ccc(C(=O)O)cc2)c1OCc1ccccc1
    .	.	103	i	1.1	.	-3
CCOC(=O)c1ccc(-n2c(CN3CCC(O)CC3)nc3ccc([N+](=O)[O-])cc3c2=O)cc1
    .	.	95	i	1	.	3
O=C(CSc1ccc(Cl)cc1)Nc1cccc(-c2nc3ncccc3o2)c1
    .	.	100	.	.	-0.9	7
Nc1c(-c2ccc(Cl)cc2)nnn1-c1ccccc1
    -9	195	285	i	0.93	-3.3	8
COc1cccc(C2=NN(C(=O)c3ccco3)C(O)(C(F)(F)F)C2)c1 (centres undefined)
    .	.	104	i	0.94	.	-9
COc1cccc2nc3cc(C)c(C)cc3nc12
    .	.	97	i	0.99	.	.
CCn1cc(C(=O)NCCc2ccccc2)c(=O)c2cc(S(=O)(=O)N3CCCC3)ccc21
    0	101	103	.	.	.	-1
O=C(O)Cc1csc(NC(=O)c2ccco2)n1
    24	132	96	i	0.99	-1.0	-1
CC(C)C1NC2(C(=O)c3ccccc3C2=O)C2C(=O)N(c3ccc(F)cc3)C(=O)C12 (centres undefined)
    .	.	102	i	0.78	-3.0	-4
CC(N1CCOC1=O)S(=O)(=O)c1ccccc1 (centres undefined)
    -43	92	100	i	1.1	-1.8	7
O=C(Cc1ccc(Cl)cc1)Nc1ccc(N2CCN(C(=O)c3ccco3)CC2)cc1
    0	77	100	i	0.84	-1.8	-1

Fields – Insulin prom inh	Insulin prom inh cell count	RGS16-Gao HTS	HSV replic up	HSV replic up primary fold	GALR2 agonist	PKD1 inh
Oc1ccc(N=Nc2ccc3c(c2)OCCO3)c2ncccc12
    .	.	100	i	0.79	.	.
Cc1nnc(SCCCn2c(N3CCN(c4ccccc4)CC3)nc3c2c(=O)[nH]c(=O)n3C)s1
    16	90	99	i	0.9	-0.3	1
Nc1cc(N)nc(SCC(=O)NNC(=O)c2ccc(Cl)cc2)n1
    .	.	103	i	0.8	0.1	-5
CS(=O)(=O)NCCNc1cc(Cl)ccc1[N+](=O)[O-]
    18	114	102	i	0.91	.	-2
CC1(C)C2CCC1(CS(=O)(=O)NC1CCCC1)C(=O)C2 (centres undefined)
    -20	139	106	i	0.95	.	-6
COc1ccc(Nc2c(-c3ccco3)nc3cccc(C)n23)cc1
    27	85	97	i	1.1	.	-2
Cc1ccc(C(=O)CSc2ccccn2)cc1
    55	106	121	i	1.1	-3.1	-9
